HIV Env fusion – HIV envelope-mediated fusion inhibition | actives 1.1% (n = 360,000) | inhibition, % at 12.3 µM | HeLa-JRFL Env/CEM21 cell fusion, luciferase | AID 651610;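 active = mean replicate inhibition score of at least 50 and every replicate individually at or above 50; inconclusive = only one of the two criteria met; inactive = mean below 50 and not all replicates reaching 50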;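 also: 0% = plate neutral controls and 100% = maraviroc near 300 nM; one replicate is shown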
Rce1 inh – blocks yeast Ras-converting enzyme; yeast membranes, quenched prenylated peptide cleavage fluorescence; calls only; actives 0.27% (n = 290,000); AID 2563;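 active = fall in fluorescence gain of 50% or more versus controls, with final raw signal at or below 3038400; inconclusive = same 50% fall but final raw signal above 3038400; inactive = fall in fluorescence gain under 50%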;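 also: plate controls were neutral control wells for no effect and wells lacking membranes for full effect; tested at 10 µM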
Target sequence (Q03530 whole entry, looked up): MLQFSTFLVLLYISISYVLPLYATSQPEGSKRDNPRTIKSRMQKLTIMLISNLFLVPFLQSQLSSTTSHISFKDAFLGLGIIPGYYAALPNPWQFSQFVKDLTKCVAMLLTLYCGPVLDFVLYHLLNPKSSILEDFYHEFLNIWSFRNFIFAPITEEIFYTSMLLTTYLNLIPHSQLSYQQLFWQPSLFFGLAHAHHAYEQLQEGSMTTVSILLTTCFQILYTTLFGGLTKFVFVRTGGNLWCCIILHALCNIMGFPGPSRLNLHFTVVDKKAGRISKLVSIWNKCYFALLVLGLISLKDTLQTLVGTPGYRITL
eIF4H inh – inhibitors of RNA binding by human eIF4H; eIF4H fluorescence polarization binding assay; inhibition, % at 35 µM; actives 0.94% (n = 290,000); AID 2012; Q15056;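 active = 50% or more with normal probe brightness, or confirmed in later tests; inconclusive = above 50% with abnormal brightness, or retests that disagree; inactive = below 50% or failed in later tests; about a fifth of its hits are not listed in these tables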;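 also: calls also rest on retests at 20 µM and on dose response follow-up; 0% = protein and probe with vehicle and 100% = probe without protein; strong numbers were not always called active; many hits fall short of the cut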
Yeast UUG start – yeast start codon fidelity modulation; S. cerevisiae UUG-firefly luciferase reporter, luminescence/redox ratio; activity score, % at 18.7 µM; actives 0.13% (n = 350,000); AID 602363;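 active = replicate mean at a twofold rise or more, about +100% in these data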;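 also: firefly luciferase made from a UUG start codon reports start codon fidelity; reporter light over untreated wells divided by growth signal over untreated wells; some hits fall short of that in this replicate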
MT1-MMP act inh – MT1-MMP (human) activation inhibition; P50281; HT1080 RFP-PRO-GFP cells, GFP/RFP ratio fluorescence, overnight; percent of plate control window, DMSO zero; GFP/RFP ratio change, % at 20 µM; actives 0.061% (n = 360,000); AID 651647;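 active = GFP/RFP ratio change of at least 30% with cell ATP level not reduced by more than half and red fluorescence within 50% of control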; also: strong numbers were not always called active
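Assay system: HT1080 RFP-PRO-GFP cells | Dosing: 20 µM single dose, 1% DMSO | Incubation: Cells overnight before dosing, compound overnight, 37 °C, 5% CO2 | Evaluation: GFP/RFP fluorescence ratio | Control set: DMSO-only wells and HT1080 RFP-L50D-GFP cell wells as references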
PABP polyA inh – blocks human PABP binding to poly(A) RNA; P11940; AID 2014; fluorescence polarization; inhibition, % at 35 µM; actives 1% (n = 290,000);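 active = 50% or more with normal probe brightness, or confirmed in later tests; inconclusive = above 50% with abnormal brightness, or retests that disagree; inactive = below 50% or failed in later tests; about a fifth of its hits are not listed in these tables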;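 also: calls also rest on retests at 20 µM and on dose response follow-up; controls were probe without protein and protein plus probe with vehicle; some compounds called inactive have numbers as strong as hits; many hits fall short of the cut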
Target sequence (P11940 whole entry, looked up): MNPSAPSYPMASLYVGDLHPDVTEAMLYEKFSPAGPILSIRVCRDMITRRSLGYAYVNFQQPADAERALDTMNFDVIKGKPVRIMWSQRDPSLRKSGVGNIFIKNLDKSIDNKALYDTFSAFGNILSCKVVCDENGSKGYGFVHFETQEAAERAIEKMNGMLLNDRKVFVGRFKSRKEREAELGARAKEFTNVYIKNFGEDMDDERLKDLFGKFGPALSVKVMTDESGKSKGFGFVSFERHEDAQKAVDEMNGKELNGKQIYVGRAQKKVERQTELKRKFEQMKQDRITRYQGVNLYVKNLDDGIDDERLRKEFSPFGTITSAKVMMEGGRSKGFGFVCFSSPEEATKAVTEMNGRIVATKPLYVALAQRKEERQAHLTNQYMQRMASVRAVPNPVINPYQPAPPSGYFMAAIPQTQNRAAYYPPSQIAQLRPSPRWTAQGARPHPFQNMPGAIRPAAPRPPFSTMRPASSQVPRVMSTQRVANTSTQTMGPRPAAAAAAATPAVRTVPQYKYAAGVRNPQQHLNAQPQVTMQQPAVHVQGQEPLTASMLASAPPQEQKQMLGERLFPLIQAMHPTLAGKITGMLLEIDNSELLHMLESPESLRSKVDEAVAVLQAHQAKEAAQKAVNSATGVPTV
CSC inhib – cancer stem cell inhibition; cancer stem cell-like cells viability, luminescence; inhibition, % at 7.5 µM; actives 1.1% (n = 300,000);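 active = mean at 75% or more and at least half the replicates too; inconclusive = mean and replicates disagree; tested in HMLE shEcad cells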;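 also: 0% = median of negative and 100% = median of positive control wells; the first replicate is given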
eIF4H inh retest – also measured in eIF4H inh; calls as there; inhibition, %; compound at 20 µM; confirmation average;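 mean of two retest wells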
PABP polyA inh retest – recorded beside PABP polyA inh, whose call it bears; inhibition, %; compound at 20 µM; confirmation repeats;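 mean of two retest wells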
MT1-MMP act inh RFP – also measured in MT1-MMP act inh; calls as there; RFP signal change, %; measured here: RFP expression control read;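 0 = vehicle wells; hits needed this value within 50% of zero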
Starred values were filed as active, the others as inactive; i = inactive; ? = inconclusive; . = not tested or not shown. This is a subset (hit frequency here may not be typical).

SMILES	HIV Env fusion	Rce1 inh	eIF4H inh	Yeast UUG start	MT1-MMP act inh	MT1-MMP act inh RFP	PABP polyA inh	CSC inhib	others
Cc1cc(C)n(-c2ccc(F)cc2CN2CCN(Cc3ccccc3)C(CCO)C2)n1 (stereo not drawn)	-7	i	0	-12	-2	3	3	-8
CC(C)CSc1ncnc2c1oc1nc3c(cc12)COC(C)(C)C3	-140	i	-14	14	-1	-1	2	?
COCCN1CN(S(=O)(=O)c2ccccc2)c2nc3ccccc3nc21	.	i	-14	-29	0	8	1	-2
Cc1ccc(CNC(=O)CCn2cc(-c3ccc(C)cc3)nc2-c2ccncc2)cc1	.	i	-8	-7	-2	2	-1	-9
COc1cccc(NC(=S)Nc2ccc(F)cc2)c1	-16	i	-6	-34	-2	0	0	-15
CN(CCOc1ccccc1)C(=O)CCc1nc2sc3c(c2c(=O)[nH]1)CCCC3	8	i	16	-6	-1	3	4	12
CCn1c(SCC(N)=O)nc2cc(S(=O)(=O)N3CCOCC3)ccc21	-7	i	0	.	20	9	-7	2
N#C/C(=C/c1ccc(O)c(O)c1)c1nc2ccccc2[nH]1	-100	i	26	1	-98	-5	?	40
Cc1ccc(-n2nnnc2-c2cnn(-c3cccc(F)c3)c2C(F)(F)F)cc1	8	i	-7	.	4	-8	-7	-2
Cc1nn(Cc2ccc(Cl)cc2)c(C)c1NC(=O)CSc1n[nH]c(C)c1[N+](=O)[O-]	2	i	-2	-12	-2	-9	-5	2
O=C(CN1C(=O)C2(OCCO2)c2ccccc21)c1ccc(Cl)cc1	10	i	-3	.	1	-1	-1	.
CCCCn1c(N)c(N(CCOC)C(=O)c2cc(Cl)nc3ccccc23)c(=O)[nH]c1=O	4	.	.	-2	-2	-1	.	-3
O=C1OCCC1S(=O)(=O)c1ccc2ccccc2c1 (stereo not drawn)	-68	i	-2	-21	-4	2	-1	-9
Cc1ccccc1C(=O)Nc1c(-c2cccs2)c(=O)c2ccccc2n1C	2	i	13	.	-1	2	2	18
O=C(O)c1ccc(N/N=C/c2cc3c(cc2[N+](=O)[O-])OCO3)cc1	-5	i	.	-20	8	2	.	6
O=C(CSc1nc2c(cnn2-c2cccc(Cl)c2)c(=O)[nH]1)NCCC1=CCCCC1	-13	.	.	-14	1	-3	.	5
COC(=O)c1oc2ccccc2c1NC(=O)/C=C/C(=O)O	1	i	-7	.	1	4	57	-7	eIF4H inh retest=-9;PABP polyA inh retest=4
Cc1ccc(-c2nc3cc(C)ccc3o2)cc1	.	i	4	-23	3	4	-8	.
O=C(NCc1ccccc1F)c1ccc2c(c1)OCCO2	-22	i	0	5	3	3	10	.
CCCc1nc2cc(CC(=O)OC)ccc2o1	7	i	0	-2	-2	-2	-4	4

Reprinted from the part before: 2 compounds, then new ones.
SMILES	HIV Env fusion	Rce1 inh	eIF4H inh	Yeast UUG start	MT1-MMP act inh	MT1-MMP act inh RFP	PABP polyA inh	CSC inhib	others
O=C(NCc1ccccc1F)c1ccc2c(c1)OCCO2	-22	i	0	5	3	3	10	.
CCCc1nc2cc(CC(=O)OC)ccc2o1	7	i	0	-2	-2	-2	-4	4
CC(NC(=O)C1CCN(S(=O)(=O)c2ccc3nc4c(c(C(=O)O)c3c2)CCCC4)CC1)c1ccccc1 (stereo not drawn)	0	i	-6	-6	-5	0	10	-6
CC1CCC/C(=N/Nc2ccc([N+](=O)[O-])cc2[N+](=O)[O-])C1 (stereo not drawn)	.	i	4	-14	0	3	-2	14
COc1ccc(OC)c(C2C(C#N)=C(N)Oc3c2c(C)nn3-c2cccc(Cl)c2)c1 (stereo not drawn)	?	i	-7	.	-12	-10	16	47
O=C(NC(=S)N1CCOCC1)C12CC3CCC(CC(C3)C1)C2	.	i	20	.	3	2	5	.
Cc1cc(-c2cc(C(=O)NC3CCCC3)on2)nc(NC2CCCC2)n1	-54	i	2	-9	1	-2	5	-3
O=C(COc1ccc(S(=O)(=O)N2CCCCC2)cc1)NCc1ccncc1	.	i	9	-13	0	2	-4	-8
C#CCOCCOCCOCCNc1nc(N2CCN(C(=O)Cn3cc(CC(C)O)nn3)CC2)nc(N2CCN(C(=O)Cn3cc(CC(C)O)nn3)CC2)n1 (stereo not drawn)	-16	i	1	10	3	4	6	-20
CC12C=CC(=O)C=C1CCC1C2C(=O)CC2(C)C1CCC2(O)C(=O)CO (stereo not drawn)	-28	.	.	-11	-2	2	.	.
CCN(c1ccccc1)S(=O)(=O)c1ccc(C(=O)NCC2(N(C)C)CCCCC2)cc1	10	.	.	-9	0	1	.	.
CCCCOC(=O)C1=C(C)NC(=O)NC1c1cc2c(cc1Br)OCO2 (stereo not drawn)	9	i	-4	1	0	-2	9	-11
Oc1ccc(Br)cc1/C=N/Nc1nc(N2CCCCC2)nc(N2CCOCC2)n1	-1	i	-1	.	.	.	-3	2
CCc1nn(CC(=O)NCc2ccccc2Cl)c(=O)c2cccn12	-7	i	-11	-7	4	4	10	-5
Cc1ccc(Cl)cc1NC(=S)N(C)N	-3	.	-4	-24	0	3	3	-4
O=C(Nc1ccccc1)/C(=C/c1ccc([N+](=O)[O-])cc1)NC(=O)c1ccccc1	1	i	2	-4	11	4	3	-13
O=C(NCC1CCCO1)c1cc(-c2ccccc2)on1 (stereo not drawn)	.	i	-7	-7	8	10	-4	18
O=C(NCc1ccc(F)cc1)C(c1ccc(F)cc1)N(C(=O)c1csnn1)C1CC1 (stereo not drawn)	1	.	6	2	-6	-1	-12	-12
CNc1ccc(/C=C(\CCC(=O)O)c2nc3ccccc3s2)cc1[N+](=O)[O-]	6	i	26	.	1	0	15	13
COc1ccc(-n2c(-c3ccccc3)c[n+]3c2CCC3)cc1	-3	i	4	-8	-4	-26	6	-7
O=C(NC1CCCC1)C1CC1c1ccccc1 (stereo not drawn)	-8	i	0	-7	-1	6	-2	-11
CCc1ccccc1NC(=O)CSc1nnc([C@@H](N)Cc2ccccc2)o1	-60	.	-4	-20	-1	-1	8	.
CCOc1cc(NC(=O)C2CC2)c(OCC)cc1NC(=O)c1cccc(F)c1	-14	.	-16	-10	1	-3	1	8
OC(COc1ccc(Cl)cc1)CN1C2=NCCCN2c2ccccc21 (stereo not drawn)	.	i	17	-6	0	3	-7	-2
COc1ccc(C2Nc3cccc(O)c3C(=O)N2Cc2ccccc2)cc1COc1ccc(NC(C)=O)cc1 (stereo not drawn)	-25	.	.	-2	-7	-15	.	.
Cn1ccsc1=NC(=O)c1ccc(Cl)c([N+](=O)[O-])c1	0	i	-2	-20	-1	-3	-3	7
Cc1cccc(-c2c(NC(=O)c3ccco3)oc3c(C)cccc3c2=O)c1	3	i	2	.	1	0	5	-10
COc1cccc(N=Nc2c(N)[nH][nH]c2=O)c1	-28	i	-9	.	4	-4	8	-13
c1ccc(COc2ncnc3c2ncn3CCCNCc2ccc3c(c2)OCO3)cc1	5	.	.	-15	-1	1	.	.
COc1ccc(CCNC(=O)Nc2ccc3c(c2)OCO3)cc1OC	-3	i	-14	.	4	1	7	20
CCN1CCCC1CNC(=O)c1ccc2c(c1)N(Cc1ccccc1F)C(=O)c1ccccc1S2(=O)=O (stereo not drawn)	-15	i	-8	-20	-2	1	3	.
CCc1ccccc1NC(=O)c1ccc2c(c1)CCN2S(C)(=O)=O	2	i	-6	0	-1	-4	6	-16
NS(=O)(=O)c1cccc(NC(=O)CSc2nc3ccccc3c(=O)n2Cc2ccco2)c1	9	.	.	-2	-1	2	.	2
CCCCn1c(NS(=O)(=O)c2ccc(C)cc2)c(S(=O)(=O)c2ccccc2)c2nc3ccccc3nc21	12	i	0	-20	3	-6	8	108*
COC(=O)c1cc(-c2ccc(Cl)cc2)n[nH]1	9	i	-9	.	-1	2	-4	3
C=CCN(Cc1cccc(OC)c1OC)C(=O)Oc1ccccc1	.	.	.	-3	-6	-1	.	-17
Cc1cccc(CSCCNC(=O)CSCc2ccc([N+](=O)[O-])cc2)c1	40	i	8	-8	1	-6	5	9
COc1ccc(C(O)C(CN2CCOCC2)c2ccccc2)cc1 (stereo not drawn)	-100	i	-4	-7	2	2	-6	0
COc1ccc(C(=O)NC(C)CCc2ccccc2)c(OC)c1 (stereo not drawn)	3	i	-2	-19	1	-1	-11	0
CCOC(=O)C1CCN(Cc2ccc3ccccc3c2)CC1	5	i	-1	-14	2	-3	2	-8
CC(C)[C@H](NC(=O)C1CCN(S(=O)(=O)c2ccc(F)cc2)CC1)C(=O)NCc1ccco1	-1	i	-2	-15	2	3	6	-13
CC(C)(C)c1csc(NC(=O)C2=COCCO2)n1	-60	i	.	-16	2	2	.	0

By substructure, the entries above with an aryl methoxy group (9)
SMILES	HIV Env fusion	Rce1 inh	eIF4H inh	Yeast UUG start	MT1-MMP act inh	MT1-MMP act inh RFP	PABP polyA inh	CSC inhib	others
COc1cccc(NC(=S)Nc2ccc(F)cc2)c1	-16	i	-6	-34	-2	0	0	-15
COc1ccc(OC)c(C2C(C#N)=C(N)Oc3c2c(C)nn3-c2cccc(Cl)c2)c1 (stereo not drawn)	?	i	-7	.	-12	-10	16	47
COc1ccc(-n2c(-c3ccccc3)c[n+]3c2CCC3)cc1	-3	i	4	-8	-4	-26	6	-7
COc1ccc(C2Nc3cccc(O)c3C(=O)N2Cc2ccccc2)cc1COc1ccc(NC(C)=O)cc1 (stereo not drawn)	-25	.	.	-2	-7	-15	.	.
COc1cccc(N=Nc2c(N)[nH][nH]c2=O)c1	-28	i	-9	.	4	-4	8	-13
COc1ccc(CCNC(=O)Nc2ccc3c(c2)OCO3)cc1OC	-3	i	-14	.	4	1	7	20
C=CCN(Cc1cccc(OC)c1OC)C(=O)Oc1ccccc1	.	.	.	-3	-6	-1	.	-17
COc1ccc(C(O)C(CN2CCOCC2)c2ccccc2)cc1 (stereo not drawn)	-100	i	-4	-7	2	2	-6	0
COc1ccc(C(=O)NC(C)CCc2ccccc2)c(OC)c1 (stereo not drawn)	3	i	-2	-19	1	-1	-11	0
